gsp agonist – activates gsp, the McCune-Albright syndrome mutation | gsp mutant cells, cAMP HTRF, 30 min; control for the full effect not named in the record | Potency, µM (top dose mostly 76.9 µM), without a hit: at the top dose activation (cAMP increase), hits mostly activators | 0.13% of 340,000 active; active = well fitted activation curve with a large enough effect; inconclusive = small, poorly fitted or top-dose-only effect, or another doubt; inactive = no such curve, though single readings can be large or run the other way; cell line not stated here;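 also: phosphodiesterase inhibitor Ro 20-1724 added with compounds to block cAMP breakdown; potency is read from the fitted curve at half-maximal effect; nearly all actives have a fitted effect of over 60% in size; about a fifth of the inactives were tested at one dose only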
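Cells in DMEM/10% FBS with G418 were pretreated with compounds in DMSO plus […] (300 uM stock) for 30 min at 37C. cAMP was measured by HTRF (cAMP-d2 plus anti-cAMP antibody-K) after 30 min at room temperature.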
D2 ag – human D2 receptor agonism in beta-arrestin assay; P14416; DiscoveRx PathHunter D2 beta-arrestin, luminescence, 90 min; 100% = 57 uM dopamine signal; activation, % (no concentration beside the values); 0.084% of 360,000 active; AID 624465; in the data active = activation above about 40%; inconclusive = about 15% to 40%; inactive = below about 15%; also: compound concentration not given in the record; the text of the record calls up to 30% inactive
Target sequence (P14416 whole entry, looked up): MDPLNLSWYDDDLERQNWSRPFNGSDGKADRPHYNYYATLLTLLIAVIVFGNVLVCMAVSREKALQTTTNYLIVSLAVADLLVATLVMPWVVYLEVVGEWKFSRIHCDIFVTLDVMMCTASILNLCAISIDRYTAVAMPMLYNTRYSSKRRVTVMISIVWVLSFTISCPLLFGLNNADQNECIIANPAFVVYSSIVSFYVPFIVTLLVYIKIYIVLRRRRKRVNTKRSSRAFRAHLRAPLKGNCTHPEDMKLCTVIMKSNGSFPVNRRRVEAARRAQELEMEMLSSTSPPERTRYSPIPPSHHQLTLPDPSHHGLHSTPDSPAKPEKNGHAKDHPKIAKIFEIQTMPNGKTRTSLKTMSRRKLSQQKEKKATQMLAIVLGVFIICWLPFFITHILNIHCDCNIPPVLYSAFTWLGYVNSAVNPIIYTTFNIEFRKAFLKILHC
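DiscoveRx PathHunter D2 beta-arrestin cells (2,100/well) attached overnight, then compound-stimulated 90 min at 37 C in HBSS/10 mM HEPES/0.1% Tween-20 buffer; beta-galactosidase complementation read by luminescence after 1 h at ambient temperature. Dopamine 57 uM final (EC100) as control.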
Six1-Eya2 inh – blocks human Six1 binding to Eya2; AID 651725; activity change, % (test concentration not listed); 0.56% of 360,000 active; AlphaScreen GST-Six1/His-Eya2 binding, biochemical; active compounds read low; control for the full effect not named in the record; Q15475+O00167; in the data active = activity change below about -65%; inconclusive = about -30% to -65%; inactive = above about -30%; also: % is scaled to controls: 0 for no effect and ±100 for the full control effect
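AlphaScreen with GST-Six1 and His-Eya2 (5X mix: 250 nM and 500 nM), glutathione donor and nickel acceptor beads; buffer 50 mM Tris pH 8.0, 300 mM NaCl, 1 mM TCEP; 1 h at 37 C in the dark.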
CtBP-E1A blk – CtBP/E1A binding inhibition. 0.49% of 340,000 active. AlphaScreen GST-E1A/His-CtBP binding, 1536-well; active compounds read low; control for the full effect not named in the record. activity change, % (no concentration beside the values); in the data active means activity change below about -65%; inconclusive means about -30% to -65%; inactive means above about -30%; also: % is scaled to controls: 0 for no effect and ±100 for the full control effect
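GST-E1A and His-tagged CtBP (125 nM each as 5X stock) were preincubated with pin-transferred compound for 2 h at 37 °C in the dark, then glutathione donor and nickel acceptor beads were added for 1 h before AlphaScreen reading.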
gsp antagonist – antagonizes gsp, the McCune-Albright syndrome mutation | gsp-mutant cells, cAMP HTRF, 30 min; control for the full effect not named in the record | Potency, µM (top dose mostly 76.9 µM), without a hit: at the highest dose activity change, negative = inhibition, usual class: inhibitors | 0.4% of 340,000 active; active = falling curve of any shape with a large fitted effect; inconclusive = falling curve, mostly with a smaller effect; inactive = flat or rising curve; cell line not stated here;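 also: intracellular cAMP measured with PDE inhibitor Ro 20-1724 present during compound exposure; potency is read from the fitted curve at half-maximal effect; % is scaled to controls: 0 for no effect and ±100 for the full control effect; nearly all actives have a fitted effect of over 65% in size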
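HTRF cAMP measurement after 30 min RT detection following 30 min, 37C compound treatment alongside […] (added as 300 uM solution) in G418-selected cells seeded at 2000/well and grown 16–24 h.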
D2 PAM – positive allosteric modulators of human D2 dopamine receptor; P14416; DiscoveRx D2 beta-arrestin cells, luminescence, 90 min; 100% = 57 uM dopamine signal; potentiation, % (test concentration not listed); 0.23% of 360,000 active; AID 624464; active = potentiation of 50% or more; inconclusive = 30% to 50%; inactive = 30% or less;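 also: compound concentration not given in the record; tested on top of an EC20 dose of dopamine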
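PathHunter beta-arrestin assay in DiscoveRx D2 cells. Compounds were added with an EC20 of dopamine (50 nM final) for 90 min at 37 deg C. Luminescence was read 1 h after detection reagent, with 57 uM dopamine as the EC100 control.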
Active calls of the source: *; ? = inconclusive; . = no result given; [ ] = dose if it differs, or a comment.

SMILES	gsp agonist	D2 ag	Six1-Eya2 inh	CtBP-E1A blk	gsp antagonist	D2 PAM
Cc1ccc(S(=O)(=O)N2CCCCC2)cc1NC(=O)CCc1nc2ccccc2c(=O)[nH]1	?	-6.3	-10	-5	-19%	-22
COc1cccc(N2C(=O)N(c3ccccc3Cl)C3CS(=O)(=O)CC32)c1 (configuration not stated)	-41%[inhibitor]	-2.0	0	5	-7%	-8
O=C(c1ccccc1F)N1CCN(CC2CC3C=CC2C3)CC1 (configuration not stated)	11%	-1.7	8	7	7%	-17
S=C(N/N=C/c1cccs1)NC1CC2CCC1C2 (configuration not stated)	-4%[15.4 µM]	-0.4	-17	-8	6%	-7
CCN(CC)CCNCC(=O)N1c2ccccc2CCc2ccc(NC(=O)OC)cc21	-38%	-2.9	-4	2	8%	-6
CCOc1ccc2nc(N(CCN(C)C)C(=O)c3cc4ccccc4cc3OC)sc2c1	4%	2.5	?	.	1%	-23
O=C(NC1(C(F)(F)F)C(=O)Nc2c1c(=O)[nH]c(=O)n2Cc1ccccc1)c1ccco1 (configuration not stated)	2%	-3.3	0	7	3%	-3
Cn1ncc(Cl)c1C(=O)Nc1nc2ccc(Cl)cc2s1	-16%	-3.2	-7	-8	?	-11
CC(c1ccccc1)N1CC(C(=O)O)CC1=O (configuration not stated)	-45%[inhibitor]	2.4	8	3	8%	6
O=C(Oc1ccccc1N1C(=O)C2CCCCC2C1=O)c1ccc(Cl)cc1 (configuration not stated)	-3%	1.0	8	-1	-22%	-6
COc1ccccc1N1CCN(C(=O)c2cc3cc(C)ccc3[nH]2)CC1	-6%[15.4 µM]	0.5	-18	3	3%	-5
Cc1cccc(NC(=O)C2CC(=O)N(Cc3ccccc3)C2)n1 (configuration not stated)	7%[15.4 µM]	-2.2	2	-20	5%	-17
COc1ccc(N2CC(O)=C(c3nc(-c4ccccc4)cs3)C2=N)cc1	24%	0.2	1	12	-20%	-5
Cn1nnnc1NCc1cccc(Cl)c1	-23%	-0.2	0	2	9%	-11
Cc1ccc2cc(CN(CC3CCCO3)C(=O)c3cccs3)c(=O)[nH]c2c1 (configuration not stated)	-41%[inhibitor]	-2.3	-6	3	-5%	-4
COC1(OC)C(/C=C/c2ccc(Cl)cc2)C(C#N)(C#N)C1(OC)OC (configuration not stated)	28%	0.9	-3	1	1%	-7
CSc1sc(C)cc1C=O	8%[15.4 µM]	-0.7	18	-8	7%	-7
CC1=C/C(=C(\c2cc(C)c(O)c(Br)c2)c2ccccc2S(=O)(=O)O)C=C(Br)C1=O	-164%[inhibitor]	-9.0	-92*	-75*	?	-13
Cc1ccc(CSc2nnc(-c3ccncc3)n2N)cc1	4%[15.4 µM]	0.4	-22	1	-1%	-2
COc1ccc(CCN2CC(C(=O)NCCc3cccc(F)c3)CCC2=O)cc1 (configuration not stated)	-20%	1.2	7	-14	5%	-10
O=C1N(c2ccccc2C(F)(F)F)O[C@@]1(c1ccccc1)C1CCCC1	-11%	-4.6	31	-5	1%	-5
N/C(=N\O)c1cccc(CS(=O)(=O)c2ccccn2)c1	-6%[15.4 µM]	-5.3	-8	5	-4%	2
Cc1ccc2nc(NC(=O)CSc3nc(=O)n(CCN(C)C)c4c3CCCC4)sc2c1	2%	4.0	-4	0	-4%	-21
COc1cccc(NC(=O)CN2C(=O)CSc3nc(C)cc(C)c32)c1	20%	0.5	4	3	-10%	-2
CCOc1cc(C(=S)N2CCOCC2)ccc1O	?	-1.2	3	1	4%	3
Next structures
SMILES	gsp agonist	D2 ag	Six1-Eya2 inh	CtBP-E1A blk	gsp antagonist	D2 PAM
COc1cccc(CN2CCC2(C)C(=O)Nc2cccc(NS(C)(=O)=O)c2)c1OC (configuration not stated)	.	-7.0	-12	-2	.	-4
CCN(CC)CCn1c(=O)n(-c2ccc(Cl)cc2)c(=O)c2c3c(sc21)CN(C)CC3	-13%	-3.2	-2	0	0%	-6
O=C(CCC(=O)c1ccc(Br)cc1)Nc1cccc(C(F)(F)F)c1	?	-1.8	-1	7	-3%	-29
Nc1c(S(=O)(=O)c2ccccc2)c2nc3ccccc3nc2n1/N=C/c1cccc(O)c1	-5%	0.3	-75*	-84*	-16%	-3
O=C(C1CCCCC1)N(CCN1CCCC1)c1nc2ccccc2s1	-15%	-3.7	-3	11	-5%	-23
O=C(O)CCCN=CC1=C(O)CNC1=O	6%[15.4 µM]	-7.6	6	0	-4%	-7
O=C(O)c1ccc(/C=C2/SC(=S)N(Cc3ccccc3)C2=O)cc1	-13%	5.6	-2	5	16%	-2
CCOC(=O)c1c(C)c(C)n(Cc2cccc(OC)c2OC)c1C	20%	-1.8	5	5	-11%	-20
CCN(CC)CCCNc1oc(/C=C/c2ccccc2)nc1C#N	?	-2.8	2	-7	7%	-14
CCS(=O)(=O)N1CCN(C(=O)c2cccs2)CC1	-54%[inhibitor]	-3.8	1	5	7%	8
CCOC(=O)CN(C(=O)CSc1nnc(C)n1-c1ccccc1)c1ccccc1	-43%[inhibitor]	-2.3	6	-2	0%	3
Nc1nc(Cl)cc(N2CCCC2)n1	3%[15.4 µM]	0.9	2	18	-2%	-10
Cn1c(=O)c2c(nc(CN3CCCCC3)n2Cc2c(F)cccc2Cl)n(C)c1=O	36%	-2.1	10	9	1%	-5
Cc1ccc2c(c1)sc1nc(=O)n(-c3cccc(Cl)c3)c(=O)n12	7%	-3.4	0	-1	20%	-2
CCC(C)N(C(=O)CSc1ccc(NC(C)=O)cc1)C1CCS(=O)(=O)C1 (configuration not stated)	?	-1.1	3	0	2%	-5
Cc1c(C(=O)N2CCN(C3CCS(=O)(=O)C3)CC2)oc2c(F)cccc12 (configuration not stated)	3%	-4.3	7	19	-24%	-1
CCCCN(CCCC)CCCNC(=O)c1ccc2nc(-c3ccccc3NC(C)=O)c(=O)[nH]c2c1	-41%[inhibitor]	3.0	-6	.	4%	-20
O=C(O)c1ccc2c(c1)C(=O)N(C(Cc1ccccc1)C(=O)O)C2=O (configuration not stated)	1%	-4.6	4	8	1%	-4
Cc1cc(C)cc(NC(=O)CN2CCN(CCN=CC3=C(O)CC(C)(C)CC3=O)CC2)c1	-26%	-2.8	-2	4	5%	-12
CCOC(=O)C1C(=O)NC(N2CCN(Cc3ccccc3)CC2)=NC1c1ccco1 (configuration not stated)	11%	-2.1	1	0	-1%	-6
O=C(N1CCN(c2ccccn2)CC1)N1c2ccccc2Sc2ccccc21	?	-5.0	-18	-15	11%	-10
CC(C)N(C)c1ncnc2c1ncn2[C@H]1CN(Cc2ccc(-c3ccccc3)cc2)C[C@@H](CO)O1	.	2.1	-10	-6	.	-6
COc1cccc(CNC(=O)Cn2ccc3cc(S(=O)(=O)N4CCCC4)ccc32)c1OC	-76%[inhibitor]	5.0	3	-7	-5%	-6
CC(C)(C)NC(=O)[C@@H]1CN(Cc2cccnc2)CCN1C[C@@H](O)C[C@@H](Cc1ccccc1)C(=O)N[C@H]1c2ccccc2C[C@H]1O	.	-9.5	7	7	-13%	3
O=C(C1CC1)N1CCc2cc(S(=O)(=O)N(CCO)Cc3ccccc3)ccc21	-3%	-5.4	0	8	?	-1
(more compounds)
SMILES	gsp agonist	D2 ag	Six1-Eya2 inh	CtBP-E1A blk	gsp antagonist	D2 PAM
COc1cccc(-c2cc(C(=O)NC3CC3)c3ccccc3n2)c1	?	4.4	1	3	-6%	4
COCCNC(=S)N1CCCN(c2nc3cc(C)ccc3cc2C#N)CC1	0%	4.7	6	.	-18%	-3
Nc1ccc(C(=O)Nc2ccco2)cc1	?	-1.9	1	1	-1%	-5
CCc1ccc(NC(=O)CN2CCc3ccccc3C2)cc1	-5%	-1.2	4	-7	4%	-33
Cc1cc(SCC(=O)Nc2cccc(S(N)(=O)=O)c2)c(C)cc1Br	28%	0.0	0	-6	-10%	-8
CCCCCc1c2c(cc(O)c1C(=O)O)OC(=O)c1cc(C(=O)CCCC)c(OC)cc1O2	.	-6.3	-5	-4	-14%	-28
CCCCC(=O)Nc1nc2c(OC)cc([N+](=O)[O-])cc2s1	11%	5.3	-3	-6	-10%	-10
C/C(=C\c1cccc(Cl)c1Cl)C(=O)c1c(C)cc(C)[nH]c1=O	1%	1.0	-4	.	4%	-22
Cc1ccccc1OCC1Cc2c(nc(N)c(C#N)c2N)O1 (configuration not stated)	?	-4.4	-16	-1	8%	-16
Cc1ccc(NC(=O)CCn2c(=O)[nH]c3ccsc3c2=O)cc1	19%	-2.8	-3	8	-2%	3
CCCCCn1c(=O)[nH]c2cc(C(=O)NCCN3CCOCC3)ccc2c1=O	-11%	-1.9	0	4	-4%	14
O=C(CCn1nc(-c2ccc(Cl)cc2)ccc1=O)NCc1cccnc1	-1%	-1.0	2	0	-8%	1
CSc1nc(=O)n2cc(C)ccc2n1	6%[15.4 µM]	-2.5	3	.	1%	-6
CCOC(=O)c1ccc(NC(=O)CSc2n[nH]c(-c3ccncc3)n2)cc1	-17%	2.5	-5	-3	?	4
COc1ccc(C(C)=O)cc1COC(=O)C(CO)NS(=O)(=O)c1ccc(Br)cc1 (configuration not stated)	9%[15.4 µM]	-0.9	-14	3	-3%	7
COc1cccc(C(c2nnnn2C2CCCC2)N2CCN(C/C=C/c3ccccc3)CC2)c1OC (configuration not stated)	.	-5.2	-22	-22	.	-17
CC(C)COC(=O)N1CC(O)CC1C(=O)Nc1ccc2c(c1)OCO2 (configuration not stated)	-17%	-2.9	-1	6	12%	3
COc1ccc(F)cc1-c1cc(C(=O)NCc2cccc(C(F)(F)F)c2)[nH]n1	.	-1.5	1	2	.	-17
CCOc1cc(C(=O)NCC2CCCO2)cc(OCC)c1OCC (configuration not stated)	-67%[inhibitor]	-3.4	1	1	1%	-8
C/C(CC(C)C)=N\Nc1ccc(S(N)(=O)=O)cc1[N+](=O)[O-]	4%	3.7	-11	-18	-1%	-7
CCc1nc2ccc(C(=O)Nc3ccc(NC(C)=O)cc3)cn2c1N(CCC(C)C)CCN(C)C	.	8.1	1	3	.	-9
Cc1ccc2nc(N3C(=O)C(O)=C(C(=O)c4ccc(C)o4)C3c3ccco3)sc2c1 (configuration not stated)	18%	7.4	-4	-1	-16%	-4

Shown bar-delimited: entries from further up
SMILES | gsp agonist | D2 ag | Six1-Eya2 inh | CtBP-E1A blk | gsp antagonist | D2 PAM
CCCCCc1c2c(cc(O)c1C(=O)O)OC(=O)c1cc(C(=O)CCCC)c(OC)cc1O2 | . | -6.3 | -5 | -4 | -14% | -28
Cc1ccc(NC(=O)CCn2c(=O)[nH]c3ccsc3c2=O)cc1 | 19% | -2.8 | -3 | 8 | -2% | 3
CCc1ccc(NC(=O)CN2CCc3ccccc3C2)cc1 | -5% | -1.2 | 4 | -7 | 4% | -33
CSc1nc(=O)n2cc(C)ccc2n1 | 6%[15.4 µM] | -2.5 | 3 | . | 1% | -6
CCOc1cc(C(=O)NCC2CCCO2)cc(OCC)c1OCC (configuration not stated) | -67%[inhibitor] | -3.4 | 1 | 1 | 1% | -8

Bioassay records: PubChem, National Center for Advancing Translational Sciences (NCATS)
